2A StopGo – FMDV 2A StopGo reporter, luciferase signal; Potency, µM (series often up to 57.9 µM), for inactives: top-dose signal change, negative = less light; AID 1159524; human cells with a luciferase reporter of 2A StopGo recoding; control for the full effect not named in the record; 1.2% of 410,000 active; active = well fitted falling curve with a large enough effect; inconclusive = small, poorly fitted or top-dose-only effect; inactive = no such curve, though single readings can be large or run the other way; tested in HEK293T cells; note: % is set by controls: 0 for no effect and ±100 for the full control effect; nearly all actives have a fitted effect of over 45% in size; luciferase light after 4 h
Cruzain inh Det – blocks cruzain activity in presence of Triton detergent. P25779. purified cruzain, Z-FR-AMC fluorescence, 0.01% Triton. Potency, µM, for inactives: max response, negative = inhibition, usual class: inhibitors. 0.43% of 200,000 active. AID 1478;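 note: plate controls were neutral wells for no effect and buffer without enzyme for full effect; nearly all actives have a fitted effect of over 40% in size; top concentration of the series not given in the record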
Target sequence (P25779 123-467 limits assumed): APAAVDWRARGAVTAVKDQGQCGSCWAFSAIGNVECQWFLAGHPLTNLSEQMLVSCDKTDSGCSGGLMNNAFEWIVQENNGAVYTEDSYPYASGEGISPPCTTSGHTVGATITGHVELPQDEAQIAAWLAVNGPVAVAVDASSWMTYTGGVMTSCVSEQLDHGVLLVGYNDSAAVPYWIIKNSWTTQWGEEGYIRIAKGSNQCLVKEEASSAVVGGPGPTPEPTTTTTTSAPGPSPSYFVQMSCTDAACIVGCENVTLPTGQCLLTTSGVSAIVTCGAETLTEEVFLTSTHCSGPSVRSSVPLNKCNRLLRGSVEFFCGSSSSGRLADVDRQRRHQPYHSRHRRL
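Detergent-containing arm of a paired screen for aggregation-based inhibition: 0.01% Triton X-100 present. Cruzain at 1.5 nM cleaved 2 uM Z-FR-AMC at pH 5.5 with 5 mM DTT; AMC fluorescence gain over 60 s measured activity.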
SARS PLpro yeast – inhibitors of SARS-CoV papain-like protease in yeast | S. cerevisiae expressing SARS-CoV PLpro, growth rescue; control for the full effect not named in the record | Potency, µM (highest dose often 32.9 µM), without a hit: top-dose activity, positive = growth rescue | 0.19% of 330,000 active; active means well fitted rising curve with a large enough effect; inconclusive means small, poorly fitted or top-dose-only effect; inactive means no such curve, though single readings can be large or run the other way; note: 0% is about no effect; nearly all actives have a fitted effect of over 55% in size; growth read by luminescence after 48 h
NS1 function inh – influenza NS1 inhibition; Potency, µM (series often up to 46.1 µM), inactives show top-dose activity, positive = more growth; S. cerevisiae slowed by influenza A NS1, growth recovery by OD600; 0.4% of 270,000 active; AID 2326; active means well fitted rising curve with a large enough effect; inconclusive means small, poorly fitted or top-dose-only effect; inactive means no such curve, though single readings can be large or run the other way; note: nearly all actives have a fitted effect of over 50% in size
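S. cerevisiae expressing influenza A NS1, grown in glucose, washed, then diluted 1:100 into pH 6.0 -URA galactose medium with 23 nl compound. Growth recovery read as OD600; NS1-free strain serves as control.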
Cruzain noTriton – inhibitors of Trypanosoma cruzi cruzain without detergent; purified cruzain, Z-FR-AMC fluorescence, no detergent; Potency, µM, without a hit: max response, negative = inhibition, usual class: inhibitors; 2.3% of 200,000 active; AID 1476;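 note: plate controls were enzyme without inhibitor for no effect and buffer without enzyme for full effect; nearly all actives have a fitted effect of over 40% in size; top concentration of the series not given in the record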
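Detergent-free condition (0.00005% Triton X-100) in acetate buffer pH 5.5 with DTT. 1.5 nM enzyme and compound were pre-mixed 15 min, then 2 uM Z-FR-AMC substrate added; reaction progress from fluorescence change between first and third reads (60 s).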
RE007 growth inh – less growth of the S. pombe RE007 Vpr strain; 0.21% of 360,000 active; S. pombe RE007 Vpr strain, BacTiter-Glo ATP luminescence, 24 h; control for the full effect not named in the record; Potency, µM (doses to about 92.2 µM), for inactives: at the top dose activity change, negative = less growth; AID 651644; active = well fitted falling curve with a large enough effect; inconclusive = small, poorly fitted or top-dose-only effect; inactive = no such curve, though single readings can be large or run the other way;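 note: % is set by controls: 0 for no effect and ±100 for the full control effect; nearly all actives have a fitted effect of over 50% in size; the assay follows cell death caused by Vpr and the record does not say whether a fall means rescue or toxicity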
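Fission yeast RE007 carrying one integrated HIV-1 vpr copy, seeded at OD 0.01 in PMG+AL medium with 23 nL pinned compound. Grown 24 h at 30 degrees; viability read by BacTiter-Glo luminescence after 5 min.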
Marburg entry inh – Marburg virus entry inhibition; Marburg virus pseudotyped entry inhibition, cell reporter; control for the full effect not named in the record; about a third of the inactives were read at about 46 µM; Potency, µM (highest dose often 37.8 µM), for inactives: at the highest dose activity change, negative = inhibition, actives largely listed as inhibitors; 1.8% of 300,000 active; active = well fitted inhibition curve with a large enough effect; inconclusive = small, poorly fitted or top-dose-only effect, or effect the other way; inactive = flat fitted curve, though single readings scatter; tested in HEK293 cells; about a fifth of its hits are not listed in these tables; note: % is set by controls: 0 for no effect and ±100 for the full control effect; luciferase read-out
LASV entry inh – inhibitors of Lassa virus binding or cell entry. Lassa virus pseudotype entry inhibition, cell reporter; control for the full effect not named in the record. Potency, µM (series often up to 37.9 µM), for the others: at the highest dose activity change, negative = inhibition, actives largely listed as inhibitors. 1.2% of 300,000 active. AID 540256; active means well fitted inhibition curve with a large enough effect; inconclusive means small, poorly fitted or top-dose-only effect, or effect the other way; inactive means flat fitted curve, though single readings scatter; tested in HEK293 cells; note: % is set by controls: 0 for no effect and ±100 for the full control effect; nearly all actives have a fitted effect of over 50% in size; luciferase read-out
An asterisk follows results filed as active; ? = inconclusive; / = no result given; [ ] = dose if it differs, or a comment. Unless noted, calls come from the whole dose curve; as a rule, active = well fitted curve in the direction sought with a large enough effect; inconclusive = small, poorly fitted or top-dose-only effect, or another doubt; inactive = no such curve, though single readings can be large; an effect the other way counts as inactive or inconclusive. Potency is the fitted concentration of half-maximal effect. An unsorted share of the library; 4.6% or so of the library scored in one or more.

SMILES	2A StopGo	Cruzain inh Det	SARS PLpro yeast	NS1 function inh	Cruzain noTriton	RE007 growth inh	Marburg entry inh	LASV entry inh
COC(=O)[C@H](CCSC)NC(=O)Nc1ccc(OC)cc1	-6%	4.6%	11%	-13%	-3%	11%	1%	-2%
CC(=O)c1ccc(NC(=O)CSc2nc3nc(C)cc(C)n3n2)cc1	-5%	1.0%	-1%	4%	-6%	-2%	-21%	-2%
CCOc1ccc(Br)cc1S(=O)(=O)N1CCSC1	22%	/	1%	11%	/	-8%	-22%	-9%
CCOC(=O)c1ccc(NC(=O)c2nc[nH]c2C(=O)NC2CCN(C(=O)OC(C)(C)C)CC2)cc1	-25%	/	9%	-5%	/	0%	/	/
CC(=O)NNC(=O)c1cc2sccc2s1	7%	/	1%	0%	/	-9%	24%	14%
CCCC(O)(c1ccc(Cl)cc1)C(CN1CCOCC1)c1ccccc1 (stereo not given)	-27%	-2.2%	-19%	-12%	-3%	-8%	/	/
C=CCOc1ccccc1/C=N/NC(=O)c1ccc(Cl)cc1Cl	-2%	-11%	-20%	-8%	-26%	19%	?	-1%
CCn1c(C)nc2cc(S(=O)(=O)C(F)F)ccc21	-1%	9.4%	0%	2%	10%	21%	6%	28%
Cc1noc(C)c1S(=O)(=O)N(CCc1ccccc1)Cc1ccccc1	-17%	-2.2%	-19%	-69%	7%	-4%	?	-4%
c1ccc2c(c1)oc1c(Nc3ccc(CN4CCOCC4)cc3)ncnc12	-60%	-12%	-13%	-19%	-9%	-7%	?	?
Cc1ccc(OCc2ccc(C(=O)O)o2)cc1C	?	/	0%	0%	/	1%	/	/
O=C(NCCc1cnn(-c2ccccc2)c1)c1cc(COc2c(F)cccc2F)on1	7%	/	0%	-3%	/	-10%	?	0%[46.1 µM]
CCc1ccc(-c2[nH]c3c(c2-c2c(-n4cccc4)n(C)c(=O)[nH]c2=O)c(=O)[nH]c(=O)n3C)cc1	-21%	-0.4%	/	/	15%	/	2%[46.1 µM]	-6%[46.1 µM]
COc1ccccc1N1CCN(C(c2cccs2)C(C)NC(=O)C(=O)N2CCOCC2)CC1 (stereo not given)	-17%	/	4%	-6%	/	-1%	/	/
O=C(COC(=O)c1ccco1)Nc1cc(S(=O)(=O)N2CCOCC2)ccc1Cl	-5%	/	-2%	/	/	0%	-2%[46.1 µM]	19%[46.1 µM]
CC1CCCC(NC(=O)COC(=O)c2ccccc2NC(=O)c2ccco2)C1C (stereo not given)	-12%	2.8%	1%	0%	-22%	-1%	-10%	-6%
Cc1nn(C)cc1C(=O)Nc1cc(Oc2ccc(Cl)cc2)cc([N+](=O)[O-])c1	-24%	-1.4%	-4%	-3%	4%	5%	?	-2%
COC(=O)c1ccc(NC(=O)C2CCCCC2C(=O)O)cc1 (stereo not given)	-21%	1.5%	2%	2%	6%	-1%	?	1%
Cc1cccc(NC(=O)CSc2nc3ccc(NC(=O)c4ccco4)cc3s2)c1	25µM*	-6.6%	/	/	2%	/	?	-7%[46.1 µM]
CCn1c(/C=C/c2ccccc2[N+](=O)[O-])nc2ccccc2c1=O	-11%	/	-2%	/	/	-5%	-22%[46.1 µM]	16%[46.1 µM]
O=C(N/N=C/c1c(F)c(F)c(F)c(F)c1F)c1ccc(Cn2cc(Br)cn2)o1	?	-8.2%	-18%	-2%	-7%	1%	?	?
Cc1ccc(C(=O)NCCc2n[nH]c(=S)n2C)cc1	21%	/	-1%	7%	/	6%	/	/
C/C(=C/C#N)Nc1ccc(C)cc1	-10%	/	-1%	4%	/	-12%	0%[46.1 µM]	13%[46.1 µM]
C/C(=N\Nc1c(Cl)c(Cl)nc(C(=O)O)c1Cl)c1ccc(O)cc1	-16%	/	-2%	24%	/	0%	?	9%[46.1 µM]
Cc1ccc(C(=O)O)cc1S(=O)(=O)NCC1CCCO1 (stereo not given)	16%	-1.2%	1%	10%	-1%	-2%	-1%	6%
CN1CCN(C(=O)/C=C/c2ccc(C#N)cc2)CC1	5%	/	1%	-4%	/	6%	-3%	8%
O=C(NCCc1ccc(Cl)cc1)c1ccc2nc[nH]c2c1	20%	/	-2%	/	/	10%	-5%[46.1 µM]	16%
CNP(=S)(NC)OCCOc1ccc(OC)cc1	3%	-0.6%	5%	2%	-4%	-19%	?	-4%
Nc1nccc(-c2nn(-c3ccc(Cl)cc3)ccc2=O)n1	2%	/	1%	-1%	/	-3%	/	/
CCOc1ccccc1NC(=O)Cn1ncc2c(=O)oc3ccc(C)cc3c21	8%	1.2%	/	/	13%	/	-11%[46.1 µM]	?
CCOC(=O)c1ccccc1NC(=O)COC(=O)CSc1ccccc1	-16%	/	-4%	/	/	10%	3%	1%
CCOc1ccc(N(CC(=O)Nc2ccc(F)cc2F)S(=O)(=O)c2c(C)[nH]c(=O)[nH]c2=O)cc1	-10%	-0.8%	/	/	-5%	/	3%[46.1 µM]	17%[46.1 µM]
COc1ccc(/C=C2\C(=O)N(c3c(Cl)cc(Cl)cc3Cl)N=C2NC(=O)c2cccc([N+](=O)[O-])c2)cc1	11µM*	-14%	23%	?	8%	0%	0%	23%
CCCCn1c(N)c(N(CCOC)C(=O)C2CCN(S(=O)(=O)c3ccc(Cl)cc3)CC2)c(=O)[nH]c1=O	-19%	/	6%	-13%	/	1%	?	?
Cc1ccccc1NC(=O)c1ccccc1NC(=O)Cc1cccc2ccccc12	-2%	-3.5%	-1%	5%	?	6%	0%	1%
CC(C)C(c1nnnn1C1CCCC1)N1CCC(C(N)=O)CC1 (stereo not given)	8%	/	0%	-3%	/	9%	9%[46.1 µM]	0%[46.1 µM]
Cn1cnc(S(=O)(=O)NC2CCN(Cc3c(F)cccc3Cl)CC2)c1	-18%	/	-1%	3%	/	-16%	/	/
CCOc1ccc(-c2cc3c(=O)n(Cc4nc(-c5ccc(OC(C)C)cc5)oc4C)ccn3n2)cc1Cl	30%	-1.1%	/	/	-5%	/	24%[46.1 µM]	15%[46.1 µM]
Cc1ccc(C)c(NC(=S)NCCN(C2CCCCC2)C2CCCC2)c1	-6%	/	-2%	/	/	-6%	?	?
Nc1c(C(=O)CSc2nnnn2-c2ccc(O)cc2)c(=O)[nH]c(=O)n1C1CC1	-10%	/	-2%	/	/	-2%	?	14%
Cc1ccc(NC(=O)Cc2c[nH]c3ccccc23)cc1S(=O)(=O)N1CCCCCC1	-3%	-4.7%	15%	23%	-12%	-7%	-4%	?
O=C(COc1ccccc1[N+](=O)[O-])N1CCN(CCc2ccccn2)CC1	-7%	-3.0%	/	/	-2%	/	24%[46.1 µM]	-3%[46.1 µM]
COc1ccccc1CN(Cc1nc2ccccc2c(=O)[nH]1)C(=O)Nc1ccccc1C	3%	-1.1%	2%	-9%	6%	2%	-2%	-1%
COc1cccc(-c2cc(C(=O)Nc3c(C)nn(Cc4ccccc4Cl)c3C)no2)c1	?	-3.3%	/	/	-20%	/	?	?
O=C(Cn1nc(C(=O)O)c2ccccc2c1=O)Nc1cccc(S(=O)(=O)N2CCCCC2)c1	-28%	/	-5%	/	/	7%	-10%[46.1 µM]	18%[46.1 µM]
O=C1c2[nH]nc(-c3ccccc3)c2C(c2ccccc2)N1c1cccc(C(F)(F)F)c1 (stereo not given)	?	-10%	/	/	?	/	/	?
CCOC(=O)N1CCN(C(=O)N2CCOCC2)CC1	-1%	1.2%	-1%	9%	-2%	-13%	8%	21%
Cc1ccc(/C=N/NC(=O)c2cccc(NC(=O)c3ccccc3C)c2)o1	-24%	/	-1%	-4%	/	-7%	10%[46.1 µM]	-29%[46.1 µM]
COc1ccc(C(=O)NCCc2nnc3ccc(SCC(=O)N4CCCCC4)nn23)cc1	-3%	/	1%	-1%	/	-1%	/	/
NC(=O)N1CCN(C(=O)c2ccco2)CC1	-10%	3.1%	3%	-2%	7%	1%	5%	-11%
Cc1ccc(CNC(=O)Nc2ccccc2)c(C)c1	47%[activator]	/	-1%	-4%	/	-10%	?	-27%
Fc1cccc(/C=N/Nc2ccc(Cl)nn2)c1	24%	/	-1%	1%	/	0%	/	/
Cc1ccc(-n2c(SCC(N)=O)nnc2-c2ccccn2)cc1C	9%	5.9%	-6%	-4%	0%	-13%	10%	18%
CS(=O)(=O)c1cccc(C(=O)OCC(=O)Nc2ccc3c(c2)OCO3)c1	-18%	/	2%	/	/	-8%	11%	23%
ClC(Cl)(Cl)c1nc2ccccc2n2nncc12	?	/	-2%	-37%	/	6%	4.5µM*	?
CCC(C)NC(=O)CN1C(=O)c2cccc3cccc1c23 (stereo not given)	-9%	/	4%	2%	/	1%	-7%	6%
COc1ccc(-c2noc(-c3ccccc3C(=O)NCc3ccco3)n2)cc1	15%	-3.6%	-2%	-4%	-8%	-2%	?	-14%
CC(C)C(=O)Nc1nnc(-c2ccco2)s1	20%	/	2%	1%	/	2%	10%	12%
COc1ccc(N(CC(=O)Nc2ccc(F)cc2)S(=O)(=O)c2ccccc2[N+](=O)[O-])c(OC)c1	-4%	/	0%	14%	/	1%	/	/
Cc1ccc(NC(=O)CCC(=O)N/N=C/c2ccc(O)cc2)cc1	1%	/	2%	5%	/	3%	4%[46.1 µM]	?

(next part)
SMILES	2A StopGo	Cruzain inh Det	SARS PLpro yeast	NS1 function inh	Cruzain noTriton	RE007 growth inh	Marburg entry inh	LASV entry inh
O=C(CN1CCCCCC1)Nc1ccc(Cl)cc1F	5%	/	3%	7%	/	-3%	6%[46.1 µM]	-42%
COc1ccccc1OCC(=O)N/N=C1\CCCCc2ccccc21	-28%	/	1%	-3%	/	39%	-6%	?
CN(C(=O)c1ccc(COc2ccccc2Cl)o1)c1ccccc1	2%	/	-3%	-11%	/	-7%	/	/
CCOC(=O)C1CCCN(C2=NC(=O)/C(=C/c3ccc(OC)c(OC)c3)S2)C1 (stereo not given)	-25%	/	2%	2%	/	11%	/	/
Cc1ccc(CSc2oc(-c3cccs3)nc2S(=O)(=O)c2ccccc2)cc1	-9%	-4.6%	/	/	-1%	/	3%[46.1 µM]	?
Fc1ccc2nc(C3CCN(Cc4nc(CC5CC5)no4)CC3)[nH]c2c1	-27%	/	-1%	-1%	/	-13%	-1%[46.1 µM]	11%[46.1 µM]
